NPYLR7 agonist: agonists of mosquito NPYLR7 receptor, primary screen, cell-based, Aedes aegypti, calcium fluorescence, mosquito biting behavior; activation, % at 10 µM; 270,000 tested, 0.15% active; HEK293T NPYLR7/Galpha15, GCaMP6s calcium fluorescence; in the data active = activation above about 40%;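 note: 0% = vehicle and 100% = reference agonist at the receptor; some compounds past the cut are filed as inactive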
NPYLR7 agonist max-min: recorded beside NPYLR7 agonist, whose call it bears; activation, %; measured here: Max-Min RFU normalised activation; some inactives read as strong as hits;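 span of the calcium signal over five minutes; 0% = vehicle and 100% = native peptide agonist; compound fluorescence can raise it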
* hit, by the source's call; & = joins results of further samples.

SMILES | NPYLR7 agonist | NPYLR7 agonist max-min
COc1ccccc1C(=O)Nc1ccccc1C1SCC(=O)N1c1cc(F)ccc1F (configuration not stated) | 15.9 | 26.5
CCOC(=O)c1c(C)[nH]c(C(=O)CN(C)Cc2ccccc2)c1C | 0.1 | -1.7
COC(=O)c1ccc(CC2(C)C(=O)Nc3ccc(-c4cccc(C(F)(F)F)c4)cc32)o1 (configuration not stated) | 0.2 | -2.7
CCN(Cc1nc(Cc2ccccc2)no1)C1CCCCC1 | 8.1 | 4.4
N#Cc1ccc(N2CCC(C(=O)NC(c3ccccc3)c3ccccc3)CC2)nc1 | -1.4 | -1.8
COc1cccc(CNC(=O)C2CCN(C(=O)CCNC(=O)/C=C/c3ccc(OC(F)(F)F)cc3)CC2)c1 | 3.1 | 9.9
Cc1ccc(SCCNC(=O)C2CCN(c3ccc(C(F)(F)F)cn3)CC2)cc1 | 4.6 | 5.6
CCOC(=O)[C@@H]1[C@H](c2ccccc2)[C@@H](NC(=O)c2cccc(OC(F)(F)F)c2)[C@H]2CCCCN21 | 1.2 | 2.3
CC1CCCN(Cc2csc(NC(=O)CNC(=O)c3ccccc3F)n2)C1 (configuration not stated) | -3.1 | 1.0
O=C(COc1ccccc1)NC1CCN(c2ccccc2C(=O)N2CCCC2)CC1 | 16.3 | 17.6
O=C(Nc1cccc(C(F)(F)F)c1)c1cccnc1Nc1cccc(C(F)(F)F)c1 | 14.4 | 4.9
CCC(C)CNC(=O)c1ccccc1N1CCC(NC(=O)c2cccc(C)c2)CC1 (configuration not stated) | 17.5 | 12.3
Cc1ncsc1CCC(=O)NCc1ccccc1-n1ccnc1C | 10.0 | 6.7
CSc1ccc(C(=O)C2CCCN(C(=O)c3ccc(Cn4nc(C)cc4C)cc3)C2)cc1 (configuration not stated) | 9.7&-0.7 | -1.5&-3.8
O=C1NCC2(CCCN(Cc3cccc(-c4ccccc4)c3)CC2)O1 (configuration not stated) | -2.3 | -3.2
CCc1ncc(CN2CCOC(Cc3ccccc3)C2)cn1 (configuration not stated) | 14.9 | 2.2
CCC(=O)N=c1sc2cc(F)cc(F)c2n1C | 1.5 | 0.3
CCN(CC)C1CCN(C(=O)c2cnc3ccccn3c2=O)C1 (configuration not stated) | -1.7 | -5.1
COC(=O)CC(NC(=O)C1CCCN(S(=O)(=O)c2ccc(F)cc2)C1)c1ccccc1 (configuration not stated) | 1.7 | 5.3
CC(C)N1CCC1(C)C(=O)Nc1ccc(-n2cncn2)cc1 (configuration not stated) | 3.2 | 0.3
Cc1ccc(C(=O)Nc2nc(CN3CCCC(C)C3)cs2)s1 (configuration not stated) | -4.3 | -5.1
CN(Cc1csc(-c2ccccc2)n1)C(=O)c1cc(C2CC2)[nH]n1 | 9.5 | 3.4
C=Cc1ccc(Cn2cc(C(=O)NCc3ccc(OC)cc3)sc2=O)cc1 | 16.5 | 7.4
Cc1cccc(CC(SC#N)C(=O)OCCCl)c1 (configuration not stated) | 1.3 | -8.0
Cn1ncc([N+](=O)[O-])c1C(=O)Nc1cccc2ccccc12 | -1.9 | -7.2
Next part
SMILES | NPYLR7 agonist | NPYLR7 agonist max-min
COc1cc(S(=O)(=O)N2CCN(C)CC2)c(OC)cc1Cl | 2.5 | 0.4
COc1cc(OC)cc(-c2nn(-c3ccccc3)c(OC(C)=O)c2-c2ccc(NC(=O)c3cccc(Br)c3)cc2)c1 | -7.4 | -1.0
COc1ccc2c(c1)C(C)(Cc1cccc(C(F)(F)F)c1)C(=O)N2 (configuration not stated) | 0.5 | 3.3
O=C(c1cccs1)N1CCCC(OCc2cccc([N+](=O)[O-])c2)C1 (configuration not stated) | -2.5 | -2.1
CCc1nc2ccc(C(=O)Nc3ccc(NC(C)=O)cc3)cn2c1N(CC)C(=O)NCCc1ccccc1 | -4.9 | -11.5
O=C(c1c(F)cccc1Cl)N1CCN(C(c2ccccc2)c2ccc(Br)cc2)CC1 (configuration not stated) | 15.4 | 22.1
OC[C@H]1CCN(Cc2cccc(-c3ccccn3)c2)C[C@@H]1O | 7.3 | 3.3
O=C(NCc1cccnc1)c1cccnc1Nc1cccc(C(F)(F)F)c1 | 3.7 | -0.1
CCC(=O)N1CCCCC1C(=O)N1CCC(OCC(N)=O)C1 (configuration not stated) | 0.3 | -1.1
CSc1cccc(N2CC(c3nc4ccccc4n3CCCN(C)C)CC2=O)c1 (configuration not stated) | 2.6 | -1.8
O=C(c1ccc(F)cc1)N1CCN(C(=O)c2cccnc2)CC1 | 2.3 | -0.7
COc1ccccc1-c1cc(C(=O)NCCN2CCCCC2)n2nc(-c3ccc(Cl)cc3)cc2n1 | 12.1 | 12.3
Brc1ccccc1-c1nnc(SCc2ncc(-c3ccccc3)o2)o1 | -1.4 | 21.0
Cc1cc(C(=O)N(Cc2cccnc2)CC2CCN(Cc3ccccc3C)CC2)no1 | 3.9 | -2.2
Cc1cc(C)c(C(=O)NCCC2CN(CC(C)C)CCO2)c(=O)[nH]1 (configuration not stated) | 16.0 | 6.2
CCCCOCc1n[nH]c(Cc2ccccc2)n1 | 3.5 | 4.9
O=C(NCc1ccc2c(c1)OCO2)c1cccnc1N1CCN(C(=O)c2ccc(OC(F)F)cc2)CC1 | 22.7 | 5.3
CCn1c(C2CCCN(C(=O)c3nc4ccccc4s3)C2)nn(C)c1=O (configuration not stated) | -2.9 | -4.2
CCOC(=O)CN(CCCOC)CC(=O)N1CCSC1c1ccc(F)cc1 (configuration not stated) | 19.1 | 15.4
CC/C(=N\NC(=O)C1(C)CC1(Br)Br)C12CC3CC(CC(C3)C1)C2 (configuration not stated) | 0.8 | 3.2
O=C(O)c1sc(Br)c(I)c1I | -4.9 | -7.4
CC(NC(=O)Nn1cnc2ccccc21)c1ccccc1Br (configuration not stated) | -4.0 | -6.9
CNC(=O)NC(=O)C(C)NC1C2CC3CC(C2)CC1C3 (configuration not stated) | 0.3 | 4.1
O=C1c2c(-c3ccccc3)nc3ccccc3c2C(=O)N1CCCn1ccnc1 | -9.4 | -16.7
CCS(=O)(=O)c1ccc2oc(-c3cccc(C)c3OS(=O)(=O)c3ccc(C)cc3)nc2c1 | -1.2 | 14.5
Following part:
SMILES | NPYLR7 agonist | NPYLR7 agonist max-min
COc1ccnc(NCC(C)(C)N2CC(C)OC(C)C2)n1 (configuration not stated) | -0.2 | 0.5
CCC(=O)NCCc1csc2nc(-c3ccccc3C)nn12 | 8.8 | 2.6
O=C(CCC1CCCN(Cc2cc3ccccc3o2)C1)Nc1ccccc1F (configuration not stated) | 13.3 | 4.7
CCN1CCN(C(=O)c2ccc(CSc3nc(Cl)cc(N4CCC(Cc5ccccc5)CC4)n3)cc2)CC1 | -4.1 | 0.1
CCOC(=O)/C(C#N)=C1/Sc2ccccc2N1C | -2.0 | -3.4
Cc1nc(CS(=O)(=O)CCCC(=O)N(C)C)sc1C | 2.9 | 0.5
COc1cc2c(cc1OC)C(=O)N(C)C1(N2)C(=O)Nc2ccc(C(C)C)cc21 (configuration not stated) | 9.7 | 9.5
O=C(/C=C/c1ccncc1)NS(=O)(=O)N1CCN(Cc2ccccc2)CC1 | -6.8 | -7.7
COc1cc(OC)c(CNC(=O)c2c(C)noc2-c2ccc(C(C)(C)C)cc2)c(OC)c1 | 23.6 | 10.7
COc1cccc(CSc2nnc(C(C)NC(=O)C(C)(C)CCl)n2-c2ccc(C)cc2)c1 (configuration not stated) | -5.9 | 2.1
CC(C)=C1C2C=CC1C1C(=O)N(c3ccccc3C#N)C(=O)C21 (configuration not stated) | -9.6 | -20.7
Cc1ccc(C)n1C1CCN(C(=O)c2ccc3c(c2)CCC3)CC1 | -2.7 | -4.4
O=C(c1ccco1)N1CCN(C(C(=O)N2CCOCC2)C2CCCC2)CC1 (configuration not stated) | -6.5 | -8.7
NC(=O)NCCC(=O)N1CCOC(Cc2cccc(F)c2)C1 (configuration not stated) | -0.7 | -1.9
Cc1cc(C)n2c(C(=O)N3CCC4(CCCN(C)C4=O)C3)nnc2n1 (configuration not stated) | -3.8 | -5.1
O=C(CC1CSc2nccc(=O)n21)Nc1ccc(Oc2ccccc2)cc1 (configuration not stated) | -1.1 | 0.3
CC(C)Cc1csc2nc(Cc3coc(-c4cccs4)n3)[nH]c(=O)c12 | -1.4 | 10.0
COc1ccc(NC(=O)CN2C(=O)c3ccc([N+](=O)[O-])cc3C2=O)cc1 | -7.2 | -11.4
COc1ccc(-c2cc(C(=O)O)nc3c(-c4ccccc4)c(C)nn23)cc1 | -4.5 | -0.2
OC1CCN(c2cc3ccccc3c(Cl)n2)CC1 | 8.3 | 6.1
CN1N=C(C(=O)NC(c2cccs2)C2CCCC2)CCC1=O (configuration not stated) | 2.3 | -0.3
COc1cccc(CN(C)CC2(CO)CC2)c1F | 6.9 | 5.5
O=C(CSc1c(-c2ccccc2)[nH]c2ccccc12)N1CCCCC1 | -4.8 | -5.2
Cc1ccc(-c2nc(OCC(C)C)nn2-c2ccc(N)cc2)cc1 | -3.6 | -15.7
C=CCn1c(CCCCCN2C(=O)c3cccc4cccc(c34)C2=O)n[nH]c1=S | 2.4 | 0.0

Reformatted comma-delimited: entries from further up.
compound,NPYLR7 agonist,NPYLR7 agonist max-min
CC(C)=C1C2C=CC1C1C(=O)N(c3ccccc3C#N)C(=O)C21 (configuration not stated),-9.6,-20.7
Cc1ccc(C)n1C1CCN(C(=O)c2ccc3c(c2)CCC3)CC1,-2.7,-4.4
O=C(c1ccco1)N1CCN(C(C(=O)N2CCOCC2)C2CCCC2)CC1 (configuration not stated),-6.5,-8.7
NC(=O)NCCC(=O)N1CCOC(Cc2cccc(F)c2)C1 (configuration not stated),-0.7,-1.9
Cc1cc(C)n2c(C(=O)N3CCC4(CCCN(C)C4=O)C3)nnc2n1 (configuration not stated),-3.8,-5.1
O=C(CC1CSc2nccc(=O)n21)Nc1ccc(Oc2ccccc2)cc1 (configuration not stated),-1.1,0.3
CC(C)Cc1csc2nc(Cc3coc(-c4cccs4)n3)[nH]c(=O)c12,-1.4,10.0
COc1ccc(NC(=O)CN2C(=O)c3ccc([N+](=O)[O-])cc3C2=O)cc1,-7.2,-11.4
COc1ccc(-c2cc(C(=O)O)nc3c(-c4ccccc4)c(C)nn23)cc1,-4.5,-0.2
OC1CCN(c2cc3ccccc3c(Cl)n2)CC1,8.3,6.1
CN1N=C(C(=O)NC(c2cccs2)C2CCCC2)CCC1=O (configuration not stated),2.3,-0.3
COc1cccc(CN(C)CC2(CO)CC2)c1F,6.9,5.5
O=C(CSc1c(-c2ccccc2)[nH]c2ccccc12)N1CCCCC1,-4.8,-5.2

Going on with the list:
SMILES | NPYLR7 agonist | NPYLR7 agonist max-min
CCCc1nc(N2CCN(C(=O)CCC3CCCC3)CC2)c2c(-c3ccc4ccccc4c3)noc2n1 | 15.6 | 8.0
C=C(C)CNc1nc2nonc2nc1NC1CC1 | -2.6 | -5.7
Clc1cccc(-c2cc3nc(NCCOc4ccccc4)ccn3n2)c1 | -3.4 | -5.6
COc1ccccc1C(C)(C)NCCCN1CCOC1=O | 2.6 | 0.9
COc1cc2c(cc1OC)CN(C(=O)c1ccc(-c3cc(-c4ccc(Cl)cc4Cl)[nH]n3)cc1)CC2 | 28.2 | 20.3
COC(=O)C(CNC(=O)c1cc(C#N)cn1C)Cc1ccccc1C (configuration not stated) | 0.8 | 0.4
C=CCOCC(O)CN(Cc1c(C)nn(-c2ccccc2)c1Oc1cccc(C)c1)C(C)C (configuration not stated) | 7.3 | 7.6
CCOc1ccc(-n2nnc(C(=O)OCc3nc(-c4ccccc4OC)oc3C)c2C)cc1 | 8.0 | -0.6
CCCN(CC(=O)Nc1cc(-c2ccccc2)nn1-c1ccc(C)cc1C)C(=O)Nc1cccc(Br)c1 | -2.1 | -0.7
CC(O)CN(Cc1ccco1)Cc1ccc(F)cc1F (configuration not stated) | -3.7 | 7.4
O=C(NC[C@H]1C[C@H]2C=C[C@H]1C21CC1)c1cnc(N2CCOCC2)nc1 | 4.7&13.0 | 2.3&11.9
Cn1cnnc1CCc1nn2c(C3CCCC3)nnc2s1 | 3.2 | 1.1
CN(C)c1nc2c(c(=O)[nH]1)CCN(C(=O)c1cn[nH]c1C1CCCCC1)C2 | 2.6 | 0.8
O=C(NC1=NCCS1)c1cc(Cl)ccn1 | 2.2 | 13.2
C=CCNc1ncnc2c1nnn2CC | 10.6 | 3.2
Cc1ccccc1-c1cccc(C(=O)N2CCN(C)C3(CCN(C)CC3)C2)c1 | -2.7 | -2.5
CCOC(=O)c1c(NC(=O)CCCCC(=O)OC)c(-c2ccc(OC)c(OC)c2)cn1Cc1ccccc1 | 11.4 | -4.1
O=C1CC(N2CCN(S(=O)(=O)c3ccccc3[N+](=O)[O-])CC2)C(=O)N1c1ccc(F)cc1 (configuration not stated) | 7.4 | 3.7
CCN(CC)c1c(C)nc2ccc(C(=O)N3CCCC(C(N)=O)C3)cn12 (configuration not stated) | -3.9 | -6.3
CCCc1nc(N2CCCN(C(=O)Nc3ccc(Cl)cc3Cl)CC2)c2c(-c3cccc(C(F)(F)F)c3)noc2n1 | 17.1 | 5.2
CCOc1ncccc1CNC(=O)C1CCCN(CC(N)=O)C1 (configuration not stated) | 14.2 | 5.1
O=C(COC(=O)C1CC(=O)N(c2nc(-c3ccccc3)cs2)C1)c1ccc(Br)cc1 (configuration not stated) | -8.8 | -10.9
O=C(O)c1c(C(=O)O)c2ccccc2[nH]c1=O | 2.2 | -0.5
N#CCCN(Cc1ccccc1)C(=O)C1CC1(c1ccccc1)c1ccccc1 (configuration not stated) | 0.4 | 0.6
COc1ccc(-c2cccc(-n3cncc3C(=O)NC3CC(C)CC(C)(C)C3)c2)cc1OC (configuration not stated) | 8.8 | 3.5
CC(C)c1csc(CN2CCCC(CNC(=O)c3n[nH]c4ccccc34)C2)n1 (configuration not stated) | 5.3&20.1 | 1.3&8.4
CCc1c(C)nc(-n2nc(C)cc2NC(=O)c2ccc(OC)cc2)[nH]c1=O | 11.4 | 9.9
Cc1noc(C)c1CCC(=O)N1CCCC1c1cccs1 (configuration not stated) | 23.7 | 20.5
Cc1nc(C)n(CC(=O)N2CCc3c([nH]c4ccccc34)C2C2CCCCC2)n1 (configuration not stated) | 20.2&-5.5 | 11.7&-12.7

An excerpt (hit frequency here may not be typical).
